Sa helicase inh: inhibitors of S. aureus replicative helicase, primary screen, biochemical, fluorescence unwinding readout | replicative DNA helicase (DnaC/DnaB), Staphylococcus aureus | purified S. aureus helicase, fluorescence unwinding assay; about half of the hits fall short of the stated cut | inhibition, %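 (tested at about 80 µM)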 | 120,000 tested, 0.05% active;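 active = both duplicates at 50% or more, or one of them with a favoured structure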;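 note: 0% = mean of negative control wells and 100% = mean of positive control wells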
MgrA-DNA mod: S. aureus MgrA activity modulators, primary screen, biochemical, S. aureus Newman, fluorescence polarization | MgrA-DNA binding | inhibition, %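 (about 10 µg/mL by stock and volumes)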 | 84,000 tested, 0.13% active;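 active = above 50% in either of two replicates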;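 note: 0% = protein plus DNA without compound and 100% = DNA alone without protein; higher means less MgrA bound to DNA so lower polarization; one replicate is shown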
Active calls of the source: *; . = no result given.

molecule	Sa helicase inh	MgrA-DNA mod
Cc1ccc(C)c(Cn2nc3nc(C)nc(N4CCC(CNC(=O)OC(C)(C)C)CC4)c3n2)c1	-7	.
Cc1cc(C)n2cc(CSc3ccccn3)nc2n1	8	.
COc1ccc(C2=NN(C(=O)CCC(=O)O)C(c3cc4ccc(C)cc4nc3Cl)C2)cc1 (stereo unspecified)	.	2.0
CC(C)CCNC(=O)c1cc(-c2ccccc2)n[nH]1	-30	.
COc1ccc(C(NC(=O)CCCN2C(=O)c3ccccc3C2=O)c2ccccc2)cc1 (stereo unspecified)	12	.
O=C(Nc1ccc2oc(=O)ccc2c1)c1cccc(F)c1	19	0.0
CN(Cc1ccccc1)C(=O)c1cc(S(=O)(=O)N2CCCCC2)c[nH]1	-30	.
CCC(Sc1nc2ccccc2o1)C(=O)Nc1ccccc1C#N (stereo unspecified)	10	.
O=C1C(O)C(O)C(=O)N1Cc1ccccc1 (stereo unspecified)	13	.
O=C(CSc1nnc(Cc2ccccc2)o1)N1CCN(c2ccccc2)CC1	10	.
CC1CC(C)CN(C(=O)Cn2c(=O)cnc3ccccc32)C1 (stereo unspecified)	14	.
O=C(O)COc1ccc(/C=C2\C(=O)NC(=O)N(c3ccc(F)cc3)C2=O)cc1Br	.	6.5
COC(=O)/C=C1\SCC(=O)N1CC(=O)c1ccccc1	-234	.
c1ccc(Cn2c(C3CCCO3)nc3ccccc32)cc1 (stereo unspecified)	33	.
N=C1c2ccccc2CN1CCN1C(=O)S/C(=C\c2ccc(F)cc2)C1=O	-2	.
CNc1c(NC(=O)C2CC(=O)N(c3ccccc3)C2)c(=O)oc2ccccc12 (stereo unspecified)	7	0.5
COC(=O)CN(Cc1ccccc1)S(=O)(=O)c1ccc(C)cc1	2	0.7
CCN(C(=O)c1cnc(OC)cc1C(F)(F)F)c1ccc(Cl)cc1	.	-2.6
CC(OC(=O)c1ccccn1)C(=O)Nc1ccc(C(F)(F)F)cc1 (stereo unspecified)	7	.
Clc1ccccc1C1Nc2ccccc2O1 (stereo unspecified)	.	-2.1
N#CC1=C(N)Oc2n[nH]c(-c3ccccc3)c2C1C1CC=CCC1 (stereo unspecified)	13	.
COc1ccccc1/C=C1\SC(=S)N(CCC(=O)Nc2nccs2)C1=O	3	.
CN(NC(=O)c1ccccc1Cl)c1ncc(Cl)cc1C(F)(F)F	.	0.0
COc1cc(/C=[N+](/C)[O-])ccc1OCc1ccc(F)cc1	.	0.4
CC1=C(C)CC(C(=O)Nc2ccc(NC(=O)NC3CCCCC3)cc2)C(C(=O)O)C1 (stereo unspecified)	20	0.0
O=C(CCN1CCc2ccccc2C(O)(c2ccccc2)C1)c1ccc2c(c1)OCCO2 (stereo unspecified)	5	6.2
CN(C)c1ccc(C(=O)N2CCN(c3ccnc4cc(Cl)ccc34)CC2)cc1	.	-1.6
COc1ccc(C(=O)Cn2nnc(-c3ccccc3)n2)cc1	10	1.1
CCOC(=O)C1CCCCN1Cc1ccc(Br)cc1 (stereo unspecified)	-4	0.5
COCC(C)n1c(=O)c2ccccc2c2ccccc2c1=O (stereo unspecified)	13	.
O=C(Cc1c(O)c2ccccc2[nH]c1=O)NCc1ccccc1Cl	10	1.0
COc1ccc(-c2ccnc(SCC(=O)Nc3ccc(C(C)C)cc3)n2)cc1	.	-3.7
Nc1c(-c2ccccc2)cnn1-c1ccc(C(=O)O)cc1	11	.
CC(C(=O)Nc1ccc2c(c1)OCCO2)n1sc2ccccc2c1=O (stereo unspecified)	29	.
COc1ccccc1OCc1nc(=S)[nH][nH]1	7	.
CCN(CC)S(=O)(=O)c1ccc(NC(=O)CCn2c(=O)oc3ccccc32)cc1	25	.
S=C(Nc1ccc(Cl)cc1)N1CCSC1c1ccc(Br)cc1 (stereo unspecified)	10	1.5
COc1ccc2c(COC(=O)c3c(-c4ccccc4)noc3C)cc(=O)oc2c1	3	.
O=C(Nc1cc(C(F)(F)F)cc(C(F)(F)F)c1)c1cc2ccccc2oc1=O	.	-0.1
CCC(C)C(=O)Nc1nccs1 (stereo unspecified)	16	-3.0

5 entries out of the list above, sorted by the value under Sa helicase inh, high to low.
structure,Sa helicase inh,MgrA-DNA mod
N#CC1=C(N)Oc2n[nH]c(-c3ccccc3)c2C1C1CC=CCC1 (stereo unspecified),13,.
COc1ccc(C(=O)Cn2nnc(-c3ccccc3)n2)cc1,10,1.1
COc1ccccc1OCc1nc(=S)[nH][nH]1,7,.
O=C(CCN1CCc2ccccc2C(O)(c2ccccc2)C1)c1ccc2c(c1)OCCO2 (stereo unspecified),5,6.2
COc1ccc2c(COC(=O)c3c(-c4ccccc4)noc3C)cc(=O)oc2c1,3,.

Next part.
molecule	Sa helicase inh	MgrA-DNA mod
COc1ccc(CN2CNc3nc4ccccc4n3C2)cc1	-6	0.8
O=C(CSc1cnc2ccccc2n1)Nc1ccc(F)cc1	0	.
c1ccc(OCc2nnc3n2CCCCC3)cc1	4	.
COc1ccccc1OCc1cccc(C(=O)N2CCCCCC2)c1	14	.
CCSc1nnc(SC(C)C(=O)Nc2ccc(C#N)cc2)s1 (stereo unspecified)	-7	.
CCOc1ccc(NC(=O)c2ccc(N3C(=O)NC4CC3(C)Oc3ccccc34)cc2)cc1 (stereo unspecified)	9	-0.4
CC(C#N)(NC(=O)COc1ccc(C#N)cc1)C1CC1 (stereo unspecified)	8	.
O=C(CSc1nc2c(c(=O)n1Cc1ccccc1)SCC2)NCc1ccco1	5	.
O=C(Nc1ccc(F)cc1F)c1nc(-c2cccc(F)c2)n2c1CCCCC2	3	-0.3
O=C(c1ccc(CNS(=O)(=O)c2ccc(Br)cc2)cc1)N1CCc2ccccc21	10	0.1
N#Cc1cccc(CSC2=NCN(C3CC3)CN2)c1	.	-1.7
Cc1cc(C)n2nc(C)cc2n1	-11	.
Cn1ccnc1Sc1cnc(SCc2ccc(Cl)cc2)nc1-c1ccccc1	.	-0.2
O=C(CC1CCCCC1)c1c(O)c2ccccc2oc1=O	9	1.2
OC12CC3CC(C1)C1(NCCS1)C(C3)C2 (stereo unspecified)	0	1.1
Cc1ccc(N2CC(NC(=O)Nc3ccc(C(N)=O)cc3)CC2=O)cc1C (stereo unspecified)	2	.
CC1CCCCC1NC(=O)Cn1ncc2c(=O)oc3ccccc3c21 (stereo unspecified)	13	-0.6
Cn1c(=O)oc2cc(S(=O)(=O)N3CCCC(C(=O)NN4CCOCC4)C3)ccc21 (stereo unspecified)	12	-1.4
COc1ccc(CNCC2COc3ccccc3O2)cc1OC (stereo unspecified)	-5	-4.2
Fc1ccc(NC(=S)NCCCn2ccnc2)c(F)c1	.	-1.3
CSc1cccc(-n2cc3ccsc3c2)c1	.	0.0
O=c1nc2c(-c3ccc(Cl)cc3)n[nH]n2c2ccccc12	-2	-1.6
CCc1ccc(NC(=O)Cn2ncc3c2-c2ccccc2OC3)cc1	16	1.1
CCC(=O)Oc1cccc(N2C(=O)C3C4C=CC(C3C2=O)C2C(=O)N(c3cccc(OC(=O)CC)c3)C(=O)C42)c1 (stereo unspecified)	.	0.0
CC(=O)N1CCc2cc(NC(=S)NC3CCCCCC3)ccc21	.	-2.0
CCc1cccc2c(C(=O)C(Sc3nnc(CN4CCCC4=O)o3)c3ccccc3)c[nH]c12 (stereo unspecified)	-1	.
CC1(C)C=Cc2c(ccc3ccc(=O)oc23)O1	-5	.
COC(=O)c1ccc(COc2ccccc2OC)o1	-6	-0.2
CC(C)(C)c1ccc(OS(=O)(=O)c2ccc(Oc3c(Cl)cccc3[N+](=O)[O-])cc2)cc1	.	3.1
Cc1cccc(C)c1Nc1c(CN2C(=O)c3ccccc3C2=O)nc2ccc(Br)cn12	6	0.0
CSc1nc(-c2ccco2)nn1C(=O)c1ccc(C)cc1	4	1.1
COCc1cc(C)c(C#N)c(=O)[nH]1	-5	.
CCCS(=O)(=O)c1csc(C(=O)OC)c1Cl	.	1.6
O=C1CCCC2=C1C(c1ccco1)c1c([nH]n(-c3ccccc3)c1=O)N2 (stereo unspecified)	-28	.
CCC(C)NC(=O)C1CCN(S(=O)(=O)c2ccc3nc(-c4ccccc4)[nH]c3c2)CC1 (stereo unspecified)	6	4.3
Cc1cc(C)nc(Nc2n[nH]c(-c3ccccc3C)n2)n1	6	-1.2
Cc1ccc(NC(=O)C2COc3ccccc3O2)cc1Cl (stereo unspecified)	9	2.3
CCCC(=O)c1ccc(NC(C)=O)cc1O	.	-0.5
O=C(Nc1ccc2sccc2c1)C1COc2ccccc2O1 (stereo unspecified)	4	.
CCSc1ccc(NC(=O)Cc2ccccc2)cc1	19	0.7
CCOC(=O)Cn1cc2c(c1-c1ccccc1)c(=O)n(C)c(=O)n2C	5	.
O=c1oc2ccccc2c2c1Sc1ccccc1N2	-22	.
CCSc1cc(C(F)(F)F)c(C(=O)N(C)Cc2c(OC)cccc2OC)cn1	.	0.7
COc1ccc(CN(C)Cc2ccccc2)cc1	2	2.6
O=C(CSc1cccc[n+]1[O-])NCCCc1ccccc1	-16	-0.3
CC(C)c1ccc(N2CC(O)=C(c3nc4ccccc4n3C)C2=N)cc1	-1	.
CCOC(=O)C1CCCN(C(=O)C2c3cc(OC)c(OC)cc3C(=O)N(C)C2c2ccc(OC)cc2)C1 (stereo unspecified)	19	.
Cc1ccc(CS(=O)(=O)CC(O)COc2ccc(F)cc2)cc1 (stereo unspecified)	18	.
NNC(=O)C1CC2CC1CC2C(=O)NN (stereo unspecified)	7	-1.6
COc1ccc(S(=O)(=O)NCCc2cn3cccc(C)c3n2)cc1OC	-2	.
CCOC(=O)c1cc(C)nc(Sc2ccccc2Cl)n1	.	-1.9
Oc1c(C(c2ccccc2)N2CCOCC2)ccc2cccnc12 (stereo unspecified)	9	.
Fc1ccc(-c2nc3cc(N=C/C=C/c4ccc5c(c4)OCO5)ccc3o2)cc1	2	-0.2
CC1(C)C/C(=N\NC(=O)CC#N)CCO1	8	.
COC(=O)CSc1nnc(CNC(=O)c2cccs2)n1-c1cccc(C)c1	-14	0.2
NC(=O)C1(N2CCCCC2)CCN(C(=S)NCc2ccco2)CC1	24	0.8
N#Cc1cc2c(nc1SCC(=O)c1ccccc1)CCCC2	12	2.3
CC1CCN(C(=O)COC(=O)COc2ccc(Cl)cc2)CC1	-10	1.4
COc1cccc(C(=O)Nc2ccccc2N2CCCCC2)c1	27	.
CCCCn1c(CN2CCN(CC)CC2)nc2c1c(=O)[nH]c(=O)n2C	13	-0.3

Record cards (already shown). Order of values: Sa helicase inh	MgrA-DNA mod
O=C(CSc1cnc2ccccc2n1)Nc1ccc(F)cc1 in the list: 0	.
O=C(CC1CCCCC1)c1c(O)c2ccccc2oc1=O in the list: 9	1.2

(next part)
molecule	Sa helicase inh	MgrA-DNA mod
CN(C)S(=O)(=O)c1ccc2oc(SCC(=O)Nc3ccccc3F)nc2c1	-14	.
Cc1ccc2cccc(OS(=O)(=O)c3ccc(C(C)C)cc3)c2n1	.	2.4
Nc1nc(N)nc(SCC(=O)N2N=C3/C(=C/c4ccccc4)CCCC3C2c2ccccc2)n1 (stereo unspecified)	-1	.
N/C(=N\OC(=O)c1sc2ccccc2c1Cl)c1c(Cl)cccc1Cl	.	0.6
COC(=O)c1cc(-c2ccc(OC)c(OC)c2)nc2ccccc12	6	-2.9
C=CCN(c1ccccc1C1=N/C(=C\c2ccc(C)cc2)C(=O)O1)S(=O)(=O)c1ccc(C)cc1	.	0.9
COc1ccc(-n2c(=O)c(CCC(=O)NC3CC3)nc3ccccc32)cc1	-2	.
CN1CCCC(OC(=O)c2ccc(C#N)cc2)C1 (stereo unspecified)	20	-1.8
CC(C)(CO)NC(=O)c1cc(-c2ccccc2F)no1	3	.
N#Cc1ccccc1COC(=O)c1ccc2c(c1)OCO2	-10	.
O=C(NCCO)c1cc2ccccc2c(=O)s1	8	2.5
CSc1ncc(Cl)c(C(=O)N2CCN(c3cccc(Cl)c3)CC2)n1	4	0.4
O/N=C1/CCCc2c1nc(-c1ccccc1)n2O	.	1.9
CCOC(=O)c1nc(-c2ccccc2)sc1-c1ccnn1C(=O)NC(C)C	.	-1.0
O=C(CSc1nc2ccccc2c(=O)n1-c1ccccc1)N1CCC1	-9	.

Fetched by compound from above:
molecule	Sa helicase inh	MgrA-DNA mod
COc1ccc(C2=NN(C(=O)CCC(=O)O)C(c3cc4ccc(C)cc4nc3Cl)C2)cc1 (stereo unspecified)	.	2.0
CCSc1nnc(SC(C)C(=O)Nc2ccc(C#N)cc2)s1 (stereo unspecified)	-7	.
COc1ccc(S(=O)(=O)NCCc2cn3cccc(C)c3n2)cc1OC	-2	.
O=C1C(O)C(O)C(=O)N1Cc1ccccc1 (stereo unspecified)	13	.
NC(=O)C1(N2CCCCC2)CCN(C(=S)NCc2ccco2)CC1	24	0.8

Screens: PubChem, ICCB-Longwood Screening Facility, Harvard Medical School

An excerpt; the hit share may differ from the screen's.
